Source: PubChem
Pin1 inh: qHTS Assay to Find Inhibitors of Pin1 | Potency, µM (series often up to 115 µM), inactives show at the highest dose activity, negative = inhibition, actives largely listed as inhibitors | Peptidyl-prolyl cis-trans isomerase NIMA-interacting 1 (Homo sapiens), Q13526 | Pin1 FP peptide displacement, HiFluor488, 10 min | 0.009% of 390,000 active; active means well fitted inhibition curve with a large enough effect in the polarisation, with a control signal flat, not every such curve was filed as active; inconclusive means small, poorly fitted or top-dose-only effect, or effect the other way, or a change in a side signal; inactive means no such curve, though single readings can be large or run the other way; the % refers to the polarisation; further: potency means the concentration at half of the fitted maximal effect
Target sequence (Q13526 whole entry, looked up): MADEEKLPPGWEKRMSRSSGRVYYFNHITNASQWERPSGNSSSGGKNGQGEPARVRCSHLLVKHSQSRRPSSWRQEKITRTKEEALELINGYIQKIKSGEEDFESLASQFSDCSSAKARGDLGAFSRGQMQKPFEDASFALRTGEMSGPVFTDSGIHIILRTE
PI4K2A inh: qHTS for small molecular inhibitors of PI4K2A; AID 1346378, 2018; 0.13% of 420,000 active; Phosphatidylinositol 4-kinase type 2-alpha (Homo sapiens), Q9BTU6; purified PI4K2A, ADP-Glo luminescence, 1 h; active compounds read low; activity change, negative = inhibition, % at 76.9 µM; in the data active means activity change below about -50%; inconclusive means mostly about -30% to -49%;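 further: -100% = wells without enzyme as full effect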
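Compounds are screened against recombinant PI4K2A using PI as substrate and ATP, the latter dispensed at 300 microM. Reactions run one hour at ambient temperature before ADP-Glo detection; full inhibition defined by wells lacking enzyme.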
TrxR1 inh: qHTS Assay for Inhibitors of Mammalian Selenoprotein Thioredoxin Reductase 1 (TrxR1): qHTS | Thioredoxin reductase 1, cytoplasmic (Rattus norvegicus), O89049 | recombinant rTrxR1, NADPH fluorescence consumption, selenite substrate | Potency, µM (highest dose often 114 µM), inactives show top-dose activity change, negative = inhibition, hits mostly inhibitors | 1% of 390,000 active | AID 588453, 2011; further: potency means the concentration at half of the fitted maximal effect; nearly all actives have a fitted effect of over 65% in size
Target sequence (O89049 whole entry, looked up): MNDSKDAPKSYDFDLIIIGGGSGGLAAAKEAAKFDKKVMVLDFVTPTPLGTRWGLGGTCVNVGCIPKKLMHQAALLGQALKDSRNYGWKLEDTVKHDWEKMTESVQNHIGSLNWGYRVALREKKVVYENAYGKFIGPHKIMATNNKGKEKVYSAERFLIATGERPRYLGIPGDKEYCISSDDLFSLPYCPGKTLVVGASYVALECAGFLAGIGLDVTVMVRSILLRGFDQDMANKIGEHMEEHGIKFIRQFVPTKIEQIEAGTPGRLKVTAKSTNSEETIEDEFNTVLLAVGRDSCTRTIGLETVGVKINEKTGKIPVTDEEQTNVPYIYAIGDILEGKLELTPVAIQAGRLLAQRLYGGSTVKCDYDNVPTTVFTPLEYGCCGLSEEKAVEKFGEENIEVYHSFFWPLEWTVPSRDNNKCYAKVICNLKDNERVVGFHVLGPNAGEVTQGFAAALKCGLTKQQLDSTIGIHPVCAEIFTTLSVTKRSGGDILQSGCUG
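Rat TrxR1 (90 nM in the dispensed reagent) was pre-reduced with 400 uM NADPH for 5 min at room temperature, then incubated with compound for 15 min. After 400 uM selenite was added, NADPH fluorescence (Ex 340/Em 450 nm) was followed for 8 min.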
TrxR1 substrate: qHTS Assay for Substrates of Mammalian Selenoprotein Thioredoxin Reductase 1 (TrxR1): qHTS | Thioredoxin reductase 1, cytoplasmic (Rattus norvegicus), O89049 | purified TrxR1 substrate turnover, NADPH consumption readout | Potency, µM (doses to about 114 µM), for the others: top-dose activity change, negative = substrate turnover | 0.01% of 390,000 active | AID 588456, 2011; further: potency means the concentration at half of the fitted maximal effect; nearly all actives have a fitted effect of over 50% in size
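Rat TrxR1, dispensed at 90 nM, was prereduced with 400 uM NADPH (final) for 5 min at ~22 deg C, then incubated with compound 15 min before 400 uM selenite. A first-read NADPH fluorescence drop versus no-compound background flagged substrates.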
GLS inhibitor: qHTS for Inhibitors of Glutaminase (GLS). GLS enzymatic activity, qHTS titration. 0.21% of 410,000 active. Potency, µM (series often up to 45.5 µM), for the others: top-dose activity change, negative = inhibition, most hits filed as inhibitors. Glutaminase kidney isoform, mitochondrial (Homo sapiens), O94925; further: potency means the concentration at half of the fitted maximal effect
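Two-point fluorescence kinetic (t0, 30 min RT) for hKGA; glutamate detected via glutamate oxidase–HRP–Amplex Red. Substrate: 1 mM L-glutamine solution; buffer 45 mM KH2PO4, pH 8.2.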
* hit, by the source's call; ? = inconclusive; nt = no result given; & = joins results of further samples; [ ] = another dose, or the depositor's remark. Unless noted, the call rests on the fitted dose curve; in most records, active means well fitted curve in the direction sought with a large enough effect; inconclusive means small, poorly fitted or top-dose-only effect, or another doubt; inactive means no such curve, though single readings can be large; an effect the other way counts as inactive or inconclusive. Unless noted, on the % scale 0 is the no-effect control and ±100 the full control effect.

1. O=C1O[C@@H]([C@H](O)CO)C(O)=C1O
2. O=C1O[C@H]([C@@H](O)CO)C(O)=C1O
3. Clc1cc(Cl)c(Cl)c(Cl)c1Cl
4. CCc1ccc(NC(=O)COC(=O)/C=C/c2ccco2)cc1
5. CC1CS(=O)(=O)CCN1N=Cc1ccc([N+](=O)[O-])o1 (stereo not drawn)
6. CC(=O)c1ccc2c(c1)N(CCCN1CCC(CCO)CC1)c1ccccc1S2

assay / compound,1,2,3,4,5,6
TrxR1 inh,4%,-10%,19%,-6%[11.4 µM],18%,14%
PI4K2A inh,-6,0&0,-2,2,5,-6&2
Pin1 inh,0%,-6%,2%,4%,2%,-8%
TrxR1 substrate,-3%,-4%,12%,10%[57.1 µM],4%,0%
GLS inhibitor,-30%,-9%&-1%,2%,0%,-13%,20%

7. CC1Cc2ccccc2N1C(=O)COC(=O)c1ccc(N(C)C)cc1 (stereo not drawn)
8. CS(=O)(=O)c1ccc([C@H](O)[C@H](CF)NC(=O)C(Cl)Cl)cc1
9. CC(=O)OCC(=O)[C@@]12OC(C)(C)O[C@@H]1C[C@H]1[C@@H]3C[C@H](F)C4=CC(=O)C=C[C@]4(C)[C@@]3(F)[C@@H](O)C[C@@]12C
10. CN(C)c1ccc(O)c2c1CC1CC3C(N(C)C)C(=O)C(C(N)=O)=C(O)[C@@]3(O)C(=O)C1=C2O (stereo partly drawn)
11. C[N+](C)(C)CCO
12. C/C=C(\C)C(=O)OC1[C@H](OC(C)=O)C2(CO)C(CC1(C)C)C1=CCC3C4(C)CCC(O[C@@H]5O[C@H](C(=O)O)[C@@H](O[C@@H]6O[C@H](CO)[C@@H](O)[C@H](O)[C@H]6O)[C@H](O)[C@H]5O[C@H]5O[C@H](CO)[C@@H](O)[C@H](O)[C@H]5O)[C@](C)(CO)C4CCC3(C)[C@]1(C)C[C@H]2O (stereo partly drawn)

assay / compound,7,8,9,10,11,12
TrxR1 inh,13%,nt,3%,-6%,7%[57.1 µM],1%
PI4K2A inh,-1,nt,2&2,1,3,6
Pin1 inh,?,nt,3%,2%,nt,-3%
TrxR1 substrate,9%,nt,1%,-5%,6%[57.1 µM],-3%
GLS inhibitor,?,-9%[20 µM],-13%,56%[activator],1%&3%,7%

13. COc1cc(C(=S)N2CCOCC2)cc(OC)c1OC
14. C[C@H]1CS(=O)(=O)CCN1/N=C\c1ccc([N+](=O)[O-])o1
15. CN1CCC[C@@H]1c1cccnc1
16. O=C(CCCN1CCC(O)(c2ccc(Cl)cc2)CC1)c1ccc(F)cc1
17. CS(=O)(=O)Nc1ccc([N+](=O)[O-])cc1Oc1ccccc1
18. c1cc(-c2ccncc2)ccn1

assay / compound,13,14,15,16,17,18
TrxR1 inh,22%,nt,nt,?,?,-2%
PI4K2A inh,5&2,nt,1,2&0&-4,-1&-6&-2,3
Pin1 inh,0%,nt,nt,0%,0%&0%,-7%
TrxR1 substrate,2%,nt,nt,-1%[57.1 µM],1%[57.1 µM],-3%
GLS inhibitor,2%&6%,-4%[20 µM],0%,1%&15%,12%,-1%

Reprinted from above, twelve compounds:
6. CC(=O)c1ccc2c(c1)N(CCCN1CCC(CCO)CC1)c1ccccc1S2
7. CC1Cc2ccccc2N1C(=O)COC(=O)c1ccc(N(C)C)cc1 (stereo not drawn)
8. CS(=O)(=O)c1ccc([C@H](O)[C@H](CF)NC(=O)C(Cl)Cl)cc1
9. CC(=O)OCC(=O)[C@@]12OC(C)(C)O[C@@H]1C[C@H]1[C@@H]3C[C@H](F)C4=CC(=O)C=C[C@]4(C)[C@@]3(F)[C@@H](O)C[C@@]12C
10. CN(C)c1ccc(O)c2c1CC1CC3C(N(C)C)C(=O)C(C(N)=O)=C(O)[C@@]3(O)C(=O)C1=C2O (stereo partly drawn)
11. C[N+](C)(C)CCO
12. C/C=C(\C)C(=O)OC1[C@H](OC(C)=O)C2(CO)C(CC1(C)C)C1=CCC3C4(C)CCC(O[C@@H]5O[C@H](C(=O)O)[C@@H](O[C@@H]6O[C@H](CO)[C@@H](O)[C@H](O)[C@H]6O)[C@H](O)[C@H]5O[C@H]5O[C@H](CO)[C@@H](O)[C@H](O)[C@H]5O)[C@](C)(CO)C4CCC3(C)[C@]1(C)C[C@H]2O (stereo partly drawn)
13. COc1cc(C(=S)N2CCOCC2)cc(OC)c1OC

assay / compound,6,7,8,9,10,11,12,13
TrxR1 inh,14%,13%,nt,3%,-6%,7%[57.1 µM],1%,22%
PI4K2A inh,-6&2,-1,nt,2&2,1,3,6,5&2
Pin1 inh,-8%,?,nt,3%,2%,nt,-3%,0%
TrxR1 substrate,0%,9%,nt,1%,-5%,6%[57.1 µM],-3%,2%
GLS inhibitor,20%,?,-9%[20 µM],-13%,56%[activator],1%&3%,7%,2%&6%

14. C[C@H]1CS(=O)(=O)CCN1/N=C\c1ccc([N+](=O)[O-])o1
15. CN1CCC[C@@H]1c1cccnc1
16. O=C(CCCN1CCC(O)(c2ccc(Cl)cc2)CC1)c1ccc(F)cc1
17. CS(=O)(=O)Nc1ccc([N+](=O)[O-])cc1Oc1ccccc1

assay / compound,14,15,16,17
TrxR1 inh,nt,nt,?,?
PI4K2A inh,nt,1,2&0&-4,-1&-6&-2
Pin1 inh,nt,nt,0%,0%&0%
TrxR1 substrate,nt,nt,-1%[57.1 µM],1%[57.1 µM]
GLS inhibitor,-4%[20 µM],0%,1%&15%,12%

Further entries:
19. CN1CCN2c3ccccc3Cc3ccccc3C2C1 (stereo not drawn)
20. CO[C@]12C(COC(N)=O)C3=C(C(=O)C(C)=C(N)C3=O)N1CC1NC12 (stereo partly drawn)
21. Cc1nc2c(=O)[nH]c(=S)[nH]c2[nH]c1=O
22. C=CCc1ccc(OC)c(OC)c1
23. O=C(O)[C@@H](O)[C@H](O)C(=O)O
24. CCC1OC(=O)C(C)C(OC2C[C@@](C)(OC)C(O)C(C)O2)C(C)C(O[C@@H]2OC(C)CC(N(C)C)C2O)[C@](C)(O)CC(C)C(=NOCOCCOC)C(C)C(O)[C@]1(C)O (stereo partly drawn)
25. COc1cc(Cc2cnc(N)nc2N)cc(OC)c1OC

assay / compound,19,20,21,22,23,24,25
TrxR1 inh,?,nt,?,10%,30%,12%,14%[57.1 µM]
PI4K2A inh,1&-4&0,nt,?,1,-2,-3,0&0&2&-1
Pin1 inh,-1%,nt,?,-6%,-10%,-18%,8%&4%
TrxR1 substrate,5%[57.1 µM],nt,26%,6%,5%,-5%,5%[57.1 µM]
GLS inhibitor,-8%&21%,-15%,6.3µM*,0%,5%,3%,4%&1%&0%

Laid out differently: results already given.
cpd | Molecule | TrxR1 inh | PI4K2A inh | Pin1 inh | TrxR1 substrate | GLS inhibitor
22 | C=CCc1ccc(OC)c(OC)c1 | 10% | 1 | -6% | 6% | 0%
24 | CCC1OC(=O)C(C)C(OC2C[C@@](C)(OC)C(O)C(C)O2)C(C)C(O[C@@H]2OC(C)CC(N(C)C)C2O)[C@](C)(O)CC(C)C(=NOCOCCOC)C(C)C(O)[C@]1(C)O (stereo partly drawn) | 12% | -3 | -18% | -5% | 3%

Not all compounds are listed; rates above refer to the full screens.
